MT1-MMP reporter: inhibitors of MT1-MMP promoter transcription, cell-based, luciferase reporter, luminescence (AID 618); MT1-MMP promoter luciferase reporter cells, luminescence; calls from a first round at 10 µM; hits with a dose series show EC50 in µM; actives 0.62% (n = 87,000);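 active = over half of the reporter light lost at 10 µM or EC50 under 50 µM; inactive = the rest and hits that failed the dose series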;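 also: actives suppress MT1-MMP promoter-driven transcription so potencies describe inhibitors; HT1080 fibrosarcoma cells; overnight exposure; toxic or luciferase-blocking compounds were not removed from the actives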
Hsc70 ATP site: Hsc70 inhibitors, probe displacement, primary screen, biochemical, fluorescence polarization (AID 568). Hsc70 fluorescence polarization, probe displacement; higher % means a stronger effect; strong numbers were not always called active. Heat shock cognate 71 kDa protein (Homo sapiens). displacement, % at 20 µM, or IC50 in µM where a hit was titrated. 83,000 tested, under 10 active;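 active = displacement above 50% without optical interference and an IC50 on retest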;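 also: ATPase domain with a fluorescein-tagged ATP probe; 0% = vehicle and 100% = excess ADP; read after one hour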
WNV protease inh: inhibitors of WNV NS2B-NS3 protease, primary screen, biochemical, fluorogenic substrate. Genome polyprotein (West Nile virus), P06935. fluorogenic substrate Ex360/Em465; hits give low values. z-score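 (tested at a level between 10 and 100 µM)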. actives 0.18% (n = 65,000). AID 577, 2007;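 active = z-score at -3 or under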;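 also: score is relative to mean and spread of the compound wells of a plate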
Target sequence (P06935 1371-1501 limits assumed): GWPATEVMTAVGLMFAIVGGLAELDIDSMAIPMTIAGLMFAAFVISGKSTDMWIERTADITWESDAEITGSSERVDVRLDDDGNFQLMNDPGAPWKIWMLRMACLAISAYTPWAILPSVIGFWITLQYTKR
Target sequence (P06935 1502-1679 limits assumed): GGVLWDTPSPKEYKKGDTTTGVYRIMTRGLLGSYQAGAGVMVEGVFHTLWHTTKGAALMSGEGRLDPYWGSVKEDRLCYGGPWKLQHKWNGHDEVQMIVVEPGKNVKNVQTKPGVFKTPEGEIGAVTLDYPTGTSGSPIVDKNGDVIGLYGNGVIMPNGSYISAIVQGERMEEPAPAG
* hit, by the source's call; i = inactive; . = no result given. The list is partial; rates above refer to the full screens.

Every second line gives: MT1-MMP reporter, Hsc70 ATP site, WNV protease inh
O=C(CNC(=O)c1ccco1)OCc1ccc(Cl)cc1
→ i, -5.6%, -0.05
CC(C)(C)Cc1nnc(NS(C)(=O)=O)s1
→ i, 1.3%, .
CCN1C(=O)CC(Sc2ccccc2N)C1=O (stereo unspecified)
→ i, -1.7%, -0.74
COc1ccccc1CNS(=O)(=O)c1ccc(C)cc1
→ i, -3.3%, .
COc1ccc(C(=O)Nc2ccc(S(=O)(=O)Nc3onc(C)c3C)cc2)cc1
→ i, 0.9%, -0.23
COc1ccc(N2CCN(C(=O)CN=C3NS(=O)(=O)C(c4ccc(C)cc4)=C3C)CC2)cc1
→ i, 3.6%, -0.25
CC(C(=O)N1c2ccc(F)cc2CCC1C)N1C(=O)c2ccccc2C1=O (stereo unspecified)
→ i, 1.4%, 0.55
Cc1ccc(CCN2CC(C(=O)NCc3cccnc3)CC2=O)cc1 (stereo unspecified)
→ i, 7.1%, -1.5
COc1ccc(-c2nn(C)c(=O)c3ccccc23)cc1NC(=O)COc1ccc(C)cc1
→ i, -3.5%, .
C/C(N)=C(/C#N)C(=O)CSc1nnc(COc2cc(C)ccc2C)o1
→ i, -5.4%, .
CC(=O)Nc1ccccc1C(=O)N1CC2(C)CC1CC(C)(C)C2 (stereo unspecified)
→ i, -2.1%, 2.4
CCOC(=O)Cn1c(=O)oc2cc(S(=O)(=O)NCCc3ccc(OCC)c(OCC)c3)ccc21
→ i, -3.7%, -0.35
Cc1cc(C)n(-c2nc3ccccc3nc2Nc2ccc3c(c2)OCO3)n1
→ i, 6.3%, -0.34
CCC(=O)Nc1nonc1-c1nc2ccccc2n1Cc1cccc2ccccc12
→ i, 0.1%, .
CC(C)OC(=O)CSc1nnnn1-c1ccc2c(c1)OCCO2
→ i, 5.9%, 0.28
O=C1OC(c2ccccc2)=C/C1=C/N1CCOCC1
→ i, 2.7%, .
O=C(O)CNCC1COc2ccccc2O1 (stereo unspecified)
→ i, -2.0%, -1.1
O=C(CCNS(=O)(=O)c1cccs1)N1CCCCCC1
→ i, -0.7%, -0.07
CCCCN(CC)C(=O)Cc1ccccc1OC
→ i, 0.8%, .
N#Cc1nc(-c2cccs2)oc1N1CCOCC1
→ i, -1.9%, 3.8
COC(=O)C1C(=O)NCC1c1ccc(OC)cc1 (stereo unspecified)
→ i, -1.2%, .
Cn1c(=O)c2c(nc(NC3CCCCC3)n2CC(O)COc2ccccc2)n(C)c1=O (stereo unspecified)
→ i, 4.1%, -0.87
O=C(C1CCCN(S(=O)(=O)c2ccc(F)cc2)C1)N(Cc1cccs1)C1CC1 (stereo unspecified)
→ i, -0.3%, 1.4
O=C(O)c1cc(S(=O)(=O)N2CCCCC2)ccc1F
→ i, -6.8%, 0.73
C=CCn1c(SCCOc2ccc(OC)cc2)nnc1C(C)NC(=O)c1ccc(OC)cc1 (stereo unspecified)
→ i, 4.2%, .
Cc1cccc(NC(=O)C2CC(=O)n3cnnc3S2)c1 (stereo unspecified)
→ i, 3.6%, .
OCCNCc1ccc(OC2CCCC2)cc1
→ i, -1.7%, -1.2
CCOC(=O)C1=C(CC)Nc2ccccc2N=C1NC(=O)c1cccc(S(=O)(=O)N2CCCC2)c1
→ i, -6.9%, 0.6
COc1ccc(CCNC(=O)N2CCOCC2)cc1
→ i, -1.3%, .
O=C(CN1CCOc2ccccc21)NC1CC1
→ i, -1.4%, -0.25
CC(=O)c1cccc(NC(=O)NCc2cccs2)c1
→ i, -5.0%, 0.15
CCCCn1c(SCC(=O)N2CCN(c3ccccc3)CC2)nc2ccsc2c1=O
→ i, -5.0%, 1.2
COc1ccccc1-n1c(SCC(N)=O)nnc1-c1ccc(S(=O)(=O)N2CCCCC2)cc1
→ i, -4.6%, -0.77
CCn1cc(C(=O)NCCCN2CC(C)CC(C)C2)c(=O)c2cc(S(=O)(=O)N(C)C)ccc21 (stereo unspecified)
→ i, 4.7%, -0.6
CCOC(=O)Cc1cc(=O)[nH]c(/N=C(/NC(=O)c2ccccc2)Nc2ccccc2C(F)(F)F)n1
→ i, 2.3%, .
O=c1c2c3c(sc2nc2sc(CN4CCCCC4)cn12)CCCC3
→ i, -0.4%, .
CN(C)CCCN1C(=O)C(=O)/C(=C(/O)c2ccncc2)C1c1cccnc1 (stereo unspecified)
→ i, -4.2%, -0.34
Cc1oc(C)c2c(=O)ccc3c(c12)OC(N)=C(C#N)C3c1ccccc1Cl (stereo unspecified)
→ i, -14%, -0.1
O=C(O)c1ncn(Cc2ccccc2)c1C(=O)O
→ i, -4.5%, 2.1
CCc1ccc(CN2CCN(S(=O)(=O)Cc3ccccc3)CC2)cc1
→ i, -1.3%, .
NC(=O)c1cc2cc(Cl)ccc2oc1=O
→ i, -2.4%, .
O=C(c1cc(-c2ccco2)on1)N1CCc2ccccc2C1
→ i, -11%, -1.1
CNc1nc(N(C)C)nc(N(C)C)n1
→ i, 1.7%, .
CCOc1ccc(NC(=O)CCN2CCN(c3ccccc3OC)CC2)cc1
→ i, 0.8%, 0.34
O=c1c2c(nc3n1CCCCC3)sc1c(O)cccc12
→ i, 0.2%, -0.99
c1ccc(-c2oc3ncnc(N4CCOCC4)c3c2-c2ccccc2)cc1
→ i, -0.8%, -0.11
CCCOc1ccccc1C1CC(=O)Nc2cc3c(cc21)OCCO3 (stereo unspecified)
→ i, 6.0%, 0.36
COc1ccc2cc(S(=O)(=O)N3CCCCC3)ccc2c1S(=O)(=O)N1CCCCC1
→ i, 2.4%, -2.4
CC1CCCCC1NC(=O)CSc1nnc(CN2CCOCC2)n1C (stereo unspecified)
→ i, -1.3%, -1.3
COC(=O)c1c(C(=O)OC)c2cc(C)ccn2c1Cl
→ i, 1.7%, 0.85
O=C(COC(=O)c1ccncc1)Nc1cc(Cl)c(Cl)cc1Cl
→ i, -2.2%, .
CCOC(=O)N1CCN(CC(O)c2ccc3cc[nH]c3c2)CC1 (stereo unspecified)
→ i, 0.9%, 1
CCCN1Cc2cccc(C(=O)Nc3ccc4c(c3)OCCO4)c2C1=O
→ i, 2.9%, -0.3
COCCOC(=O)C1=C(C)N=C2SCCC(=O)N2C1/C=C/c1ccccc1 (stereo unspecified)
→ i, 1.7%, 1.3
CC1CCCCC1NC(=O)CSc1nnnn1-c1ccccc1 (stereo unspecified)
→ i, -1.5%, -0.88
O=C(Cn1c(=O)[nH]c2ccsc2c1=O)NC1CCCCCC1
→ i, 2.4%, 0.78
CC(C)n1c(C(O)c2ccccc2)nc2ccccc21 (stereo unspecified)
→ i, 2.4%, -1.1
CCOC(=O)C1CCN(Cc2ccc(Cl)c(Cl)c2)CC1
→ i, -2.3%, .
COc1cc(C2CC(=O)N3CN(Cc4ccco4)CSC3=C2C#N)ccc1OCc1ccccc1 (stereo unspecified)
→ i, -0.5%, -0.1
O=c1[nH]c(C(F)(F)F)nc2ccccc12
→ i, 8.3%, 1.4

Copied from the entries so far (six entries):
Every second line gives: MT1-MMP reporter, Hsc70 ATP site, WNV protease inh
COc1ccc2cc(S(=O)(=O)N3CCCCC3)ccc2c1S(=O)(=O)N1CCCCC1
→ i, 2.4%, -2.4
CC1CCCCC1NC(=O)CSc1nnc(CN2CCOCC2)n1C (stereo unspecified)
→ i, -1.3%, -1.3
COC(=O)c1c(C(=O)OC)c2cc(C)ccn2c1Cl
→ i, 1.7%, 0.85
O=C(COC(=O)c1ccncc1)Nc1cc(Cl)c(Cl)cc1Cl
→ i, -2.2%, .
CCOC(=O)N1CCN(CC(O)c2ccc3cc[nH]c3c2)CC1 (stereo unspecified)
→ i, 0.9%, 1
CCCN1Cc2cccc(C(=O)Nc3ccc4c(c3)OCCO4)c2C1=O
→ i, 2.9%, -0.3

(list continues)
Every second line gives: MT1-MMP reporter, Hsc70 ATP site, WNV protease inh
O=C(CSc1nnc(Cc2ccccc2)o1)N1CCOCC1
→ i, 0.0%, -0.15
COc1ccc(-c2ccc(-c3noc(-c4cccs4)n3)c(OC)n2)cc1
→ i, -25%, 0.04
O=C(NCc1ccc2c(c1)OCO2)C1CC(c2ccccc2O)=NO1 (stereo unspecified)
→ i, -2.0%, .
CCOc1ccc(/C(O)=C2/C(=O)C(=O)N(CCOCCO)C2c2ccccn2)cc1 (stereo unspecified)
→ i, -3.8%, -0.75
O=S(=O)(NCc1csc(-c2cccnc2)n1)c1ccc2c(c1)OCCO2
→ i, -7.4%, 2.5
COc1ccc(N2CC(C)Cn3c2nc2c3c(=O)n(CCN3CCOCC3)c(=O)n2C)cc1 (stereo unspecified)
→ i, 1.8%, -1
COc1ccc(C(C#N)N2CCCCCC2)cc1OC (stereo unspecified)
→ i, 2.0%, 0.29
Cc1noc(C)c1CSc1nc2ccccc2[nH]1
→ i, 6.0%, -1.4
COc1ccc(NC(=O)CCCSc2nc(-c3ccco3)cc(C(F)(F)F)n2)cc1OC
→ i, -3.6%, .
COc1ccc(Cn2c(O)cc(=O)[nH]c2=O)cc1
→ i, -21%, -0.67
Cc1cc(=O)n(CNC(=O)c2ccccc2)c(=S)[nH]1
→ i, -3.4%, .
CCn1c(Cn2nnc(-c3ccccc3)n2)nnc1SCC(=O)Nc1ccccc1
→ i, 2.7%, -0.71
CCN(CC)c1ccc(NC(=O)C(C)C)cc1
→ i, -1.2%, -0.45
CCC(C)NC(=O)c1c(N)n(/N=C/c2cccnc2)c2nc3ccccc3nc12 (stereo unspecified)
→ i, -0.1%, 0.71
CCOC(=O)c1c(C)n(CC(COC(C)=O)OC(C)=O)c2ccc(OC(C)=O)cc12 (stereo unspecified)
→ i, 0.3%, -0.6
Clc1ccc(CN2C3=NCCCN3c3ccccc32)cc1
→ i, 4.8%, 0.47
COc1ccc(C(=O)N2CCN(C(=O)CC(C)C)CC2)cc1OC
→ i, 1.3%, -0.1
Cc1oc2c(C)c3oc(=O)c4c(c3cc2c1C)CCCC4
→ i, 0.7%, -0.17
CN1C(=O)c2oc3ccccc3c(=O)c2C1c1ccccn1 (stereo unspecified)
→ i, 0.2%, -0.56
Fc1ccc(Br)cc1C1C=C(c2cccnc2)Nc2ncnn21 (stereo unspecified)
→ i, -2.2%, -0.06
Cc1nnc(SCc2nnc(-c3ccccc3)o2)n(N)c1=O
→ i, -11%, 1.2
CCCN=Cc1c(CCC)[nH]n(-c2nc3ccccc3s2)c1=O
→ i, -2.1%, .
Cn1c(SCC(=O)NC2CCCC2)nnc1-c1ccc(S(=O)(=O)N2CCOCC2)cc1
→ i, 1.5%, 0.78
CCn1ccc(C(=O)Nc2ccc(N(C)C(C)=O)cc2)n1
→ i, 12%, 0.71
CNc1nc(N)c(C(=O)C(C)(C)C)s1
→ i, 4.3%, -0.75
Cc1ccc(-c2noc(CN3C(C)CCCC3C)n2)cc1 (stereo unspecified)
→ i, 6.9%, -0.07
N#Cc1sc2nc(N3CCCCC3)c3c(c2c1N)CCCC3
→ i, -0.2%, .
Cn1c(NCCN2CCCCC2)cc(=O)n(C)c1=O
→ i, -3.6%, 0.33
O=C(CN(Cc1cccs1)C(=O)CNS(=O)(=O)c1ccccc1)NCc1ccco1
→ i, -4.6%, 0.99
COCC(=O)Nc1nc(-c2ccccc2)c(C)s1
→ i, -3.2%, -0.93
O=C(Nc1ccccc1)N(Cc1ccc2c(c1)OCO2)Cc1nc2ccccc2c(=O)[nH]1
→ i, 7.0%, 0.78
Cc1ccc(-c2nc3s/c(=C\c4ccco4)c(=O)n3n2)cc1
→ i, -41%, 0.11
Cc1ccc2c(c1)CCCN2C(=O)c1cc2ccccc2oc1=O
→ i, 0.6%, .
COc1ccc(Br)cc1C(=O)Nc1cccc(NC(=O)c2ccco2)c1
→ i, -5.3%, 1.4
CC(=O)c1cccc(NC(=O)CN(c2ccc(F)cc2)S(C)(=O)=O)c1
→ i, 9.0%, -1.3
O/N=C1\CCCCc2ccccc21
→ i, -3.1%, 0.77
CCCn1c(N2CCN(CC(=O)NCc3cccs3)CC2)nc2ccccc21
→ i, 5.9%, -0.53
CCn1c(=O)n(CC)c2cc(S(=O)(=O)Nc3cc(C)cc(C)c3C#N)ccc21
→ i, 3.5%, .
COc1ccc(-c2nnnn2CCc2ccccc2)cc1
→ i, 0.8%, -1.2
OC(COc1ccc2cc(Br)ccc2c1)CN1CCOCC1 (stereo unspecified)
→ i, 5.2%, .
CCSc1nc2c(c(=O)[nH]1)C(c1ccccn1)C1=C(CC(C)(C)CC1=O)N2 (stereo unspecified)
→ i, -0.7%, -0.55
COc1ccc(NC(=O)CN2CCCCC2)cc1
→ i, 2.1%, -0.05
CC1CCCCN1CCNC(=O)Cn1nc(-c2ccccc2)ccc1=O (stereo unspecified)
→ i, -3.0%, -1.3
CCC(NC(=O)NCc1cccnc1)(C(F)(F)F)C(F)(F)F
→ i, 4.0%, -0.07
O=C(NC1c2ccccc2-c2ccccc21)c1ccco1
→ i, -2.8%, -0.61
CC(=O)c1c(C(C)=O)c(C)n(-c2nc(-c3ccccc3)c(C)s2)c1C
→ i, 1.9%, -0.5
COC(=O)Cn1c2ccccc2c2nc(C)sc21
→ i, -1.0%, 0.86
Cn1c(=O)cc(NCCc2ccccc2)[nH]c1=O
→ i, 5.7%, -0.54
Cc1ccc(NC(=O)NC2CCN(S(=O)(=O)c3ccc(F)cc3)CC2)cc1
→ i, -1.6%, .
